PKD1 kinase inh: inhibitors of human PKD1 kinase, biochemical, fluorescence polarization; PKD1 kinase fluorescence polarization assay; inhibition, %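 (about 10 µM by stock and volumes)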; Serine/threonine-protein kinase D1 (Homo sapiens), Q15139; 200,000 tested, 0.056% active;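 active = inhibition of 50% or more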;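 note: controls were vehicle for no effect and a reference inhibitor for full effect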
Target sequence (Q15139 whole entry, looked up): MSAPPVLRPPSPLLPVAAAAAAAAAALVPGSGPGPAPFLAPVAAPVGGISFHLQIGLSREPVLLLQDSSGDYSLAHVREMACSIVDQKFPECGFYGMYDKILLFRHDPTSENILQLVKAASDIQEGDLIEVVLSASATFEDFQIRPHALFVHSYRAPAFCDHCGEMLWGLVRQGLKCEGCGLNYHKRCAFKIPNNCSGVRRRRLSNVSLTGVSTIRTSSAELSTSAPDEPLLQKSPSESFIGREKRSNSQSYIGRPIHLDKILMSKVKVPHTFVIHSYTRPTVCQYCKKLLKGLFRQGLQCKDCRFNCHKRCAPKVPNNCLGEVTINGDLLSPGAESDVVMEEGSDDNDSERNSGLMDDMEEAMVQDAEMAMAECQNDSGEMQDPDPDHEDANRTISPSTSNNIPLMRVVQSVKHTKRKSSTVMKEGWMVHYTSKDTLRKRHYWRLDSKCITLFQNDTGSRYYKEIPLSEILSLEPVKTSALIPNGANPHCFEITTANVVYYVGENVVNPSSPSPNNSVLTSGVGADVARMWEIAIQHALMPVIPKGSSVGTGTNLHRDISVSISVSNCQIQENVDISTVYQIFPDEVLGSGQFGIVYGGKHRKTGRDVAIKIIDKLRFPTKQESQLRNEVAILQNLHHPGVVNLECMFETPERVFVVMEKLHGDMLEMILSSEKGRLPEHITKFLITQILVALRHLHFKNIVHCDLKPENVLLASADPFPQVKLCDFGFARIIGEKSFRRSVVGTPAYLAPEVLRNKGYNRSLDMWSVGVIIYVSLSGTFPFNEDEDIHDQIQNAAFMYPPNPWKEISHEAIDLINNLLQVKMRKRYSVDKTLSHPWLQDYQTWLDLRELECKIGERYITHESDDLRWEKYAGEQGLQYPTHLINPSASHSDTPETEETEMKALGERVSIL
RGS16-Gao HTS: modulators of RGS16 binding to Galphao, primary screen, biochemical, human proteins, multiplexed bead flow cytometry. bead-based flow cytometry RGS16-Galphao binding, fluorescence; actives lie on both sides. binding response (% of control), % at 10 µM. 220,000 tested, 0.38% active. AID 1441, 2008;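 active = below 25% or above 175%, edge rows of some plates excepted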;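 note: Galphao activated by GDP with aluminum fluoride before binding; 100% = wells without compound and 0% = beads without RGS; some results beyond the cut were filed as inactive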
HSV replic up: enhancers of HSV replication in host cells, fold increase, host cell viability; maximum fold increase; HSV replication augmentation in cells; AID 1956, 2009; 220,000 tested, 0.005% active;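 active = peak rise of 1.5-fold or more in the series; tested in PC3 cells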;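 note: first round at 10 µM; read as green reporter fluorescence; hits show the peak of a series up to 25 µM; 1 = signal of infected wells without compound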
Insulin prom inh: inhibitors of insulin promoter-driven GFP, primary screen, imaging, TRM-6 cells (human fetal islet line), eGFP reporter, cell count; reporter expression induced with tamoxifen; inhibition, % at 2 µM; 130,000 tested, 0.9% active;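 active = inhibition above the mean plus 3 SD, with well images judged a real hit on visual review, cut at about 60% in these data, passing the limit was not always enough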
GALR2 ag: GALR2 receptor agonists, primary screen, cell-based | 140,000 tested, 0.48% active | AID 803, 2007 | Galanin receptor type 2 (Homo sapiens), O43603 | GALR2-expressing cells, agonist activation read-out | activation, %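 (tested at 5 µM)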;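 active = above mean plus 3 SD of all compounds, about 5% in these data, not always enough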;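 note: 0% = vehicle buffer wells and 100% = reference agonist at full effect; tested in CHO reporter cells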
Insulin prom inh cell count: recorded beside Insulin prom inh, whose call it bears; normalized cell count, %; measured here: cell count, toxicity; reference of the scale not given here;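 cells exposed to compound for 48 h; stained nuclei by imaging scaled within each plate; lower means fewer cells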
HSV replic up primary fold: second read-out of HSV replic up, no call of its own (marks repeat the call); fold increase; compound at 10 µM; measured here: primary screen fold increase 10 uM; tested in PC3 cells;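 GFP signal in the first replicate; 1 = infected wells without compound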
Active calls of the source: *; i = inactive; · = not tested or not shown.

SMILES	PKD1 kinase inh	RGS16-Gao HTS	HSV replic up	HSV replic up primary fold	Insulin prom inh	Insulin prom inh cell count	GALR2 ag
O=C(c1ccc(Cl)cc1[N+](=O)[O-])N1CCN(c2ccccn2)CC1	-3	110	i	0.9	0	139	·
COc1ccc(NC(=O)c2nc[nH]c2C(=O)N2CCN(c3ccccc3)CC2)cc1	·	103	i	0.95	·	·	·
Cc1nc2n(COCCO)cnn2c(=O)c1Br	3	100	i	0.94	18	112	·
CCC(=O)c1cc2c(cc1NC(=O)c1ccc(C)cc1)OCCO2	10	103	i	0.96	-273	36	-3.3
NNC(=O)c1ccc(COc2ccc3c(c2)CCC3)cc1	3	100	i	1	·	·	-0.8
Cc1noc(NS(=O)(=O)c2ccc(NC(=O)CCC3CCCC3)cc2)c1C	-6	102	i	1	-13	133	-2.1
COc1ccccc1CNC(=O)CN(C)S(=O)(=O)c1cccc2cccnc12	·	103	i	1.1	·	·	·
Nc1nonc1-c1nc2ccccc2n1Cc1ccc(F)cc1Cl	1	103	·	·	-31	204	-1.8
Nc1c(Cl)ncnc1N1CCCC1	6	106	i	1	7	124	·
CCCCP(=O)(CCCC)c1ccccc1C(=O)O	-7	54	i	0.88	-35	106	-0.3
COCCCNC(=O)CSc1c2c(nc3ccc(Cl)cc13)CCCC2	0	100	i	0.82	0	97	·
Nc1nc(SC23CC4CC(CC(C4)C2)C3)ns1	·	102	i	0.83	·	·	·
O=C(O)c1ccccc1C(=O)c1ccc(Sc2ccc(Cl)cc2)c([N+](=O)[O-])c1	·	99	i	1.2	·	·	·
O=C(O)c1ccc(N2C(=O)/C(=C/C=C/c3ccccc3)SC2=S)cc1	-5	100	i	0.93	·	·	·
O=C(Nc1ccc(F)c(Cl)c1)NC1CC1	-12	102	i	0.97	·	·	·
COCCN(C(=O)CN1CCN(S(=O)(=O)c2ccc(F)cc2)CC1)c1c(N)n(Cc2ccccc2)c(=O)[nH]c1=O	4	111	i	1	-77	134	-1.4
CCOc1cc(/C=N/NC(=O)C(C)Sc2ccccc2)ccc1O (stereo not given)	-4	83	i	0.8	·	·	·
Cc1ccc(C(=O)CSc2nc3ccccc3c(=O)[nH]2)cc1C	2	107	i	0.82	-73	89	·
COc1ccccc1N(C)S(=O)(=O)c1ccc(C(=O)OCC(=O)N2CCC2)cc1	-6	101	i	0.94	·	·	·
CC(=O)n1nc(-c2ccc(C)cc2)nc1NCc1ccco1	1	99	i	0.95	·	·	·
COc1ccc2c(CC(=O)OCC(=O)Nc3ccc(S(N)(=O)=O)cc3)coc2c1	·	101	i	0.89	·	·	·
COc1ccccc1N1CCN(CC(=O)NCC2CCCO2)CC1 (stereo not given)	6	140	i	0.98	6	125	-3.8
CC(=O)Nc1ccc(Nc2cc(C(C)C)nc3c(-c4ccccc4)c(C)nn23)cc1	·	102	i	0.68	·	·	·
Cc1ccc2[nH]c(=O)c(CN(CC3CCCO3)C(=S)Nc3ccccc3)cc2c1 (stereo not given)	-10	105	·	·	-77	107	-0.3
COc1cc(C(=O)NCCCNc2nc3cc(C)c(C)cc3cc2C#N)cc(OC)c1OC	2	98	i	1.1	·	·	·
CCOC(=O)c1cnc2c(C)c(-c3ccccc3)[nH]n2c1=O	-2	104	i	0.95	0	101	-2.6
CCOC(=O)CN(C(=O)CSc1nnc2c(n1)[nH]c1ccc(OC)cc12)c1ccc(F)cc1	-6	103	i	0.81	·	·	-0.4
COc1ccc(S(=O)(=O)NC(C(C)C)C(C)C)cc1OC	-2	98	i	0.92	-21	159	-4.6
CS(=O)(=O)c1ccc2nc(NC(=O)CC3CCCC3)sc2c1	-8	100	i	0.88	·	·	-0.6
CC(C)NC(=S)N1CCC(Cc2ccccc2)CC1	3	101	i	0.98	·	·	·
CCOC(=O)c1cc2c(=O)n3cccc(C)c3nc2n(CCOC)c1=NC(=O)c1ccncc1	-8	·	·	·	24	80	-1.8
CC1=C(C)C(=O)N(CCC(=O)O)C1=O	0	108	i	0.95	42	111	-0.6
CCOC(=O)C1=C(C)N=C2SCCC(=O)N2[C@@H]1c1cccs1	·	103	i	0.75	·	·	·
CC(C)c1nc(NCCO)c(C#N)c2c1CCCC2	·	103	i	0.93	·	·	·
O=C(Nc1ccn(Cc2ccccc2F)n1)c1ccc(COc2ccccc2Cl)cc1	-7	100	·	·	43	95	-4.2
Cc1cc(-c2csc(N)n2)c(C)n1Cc1ccccc1	-7	96	i	1	·	·	·
COc1ccc(/C=C/C(=O)ONC2=NCCCCC2)cc1OC	0	102	i	0.79	7	65	·
Cc1ccc(N/N=C(\Cc2nc3ccccc3[nH]2)c2ccccc2)cc1	6	100	i	1.1	-177	13	-0.4
COc1ccc(OC)c(-n2c(C)ccc2-c2ccc(S(C)(=O)=O)cc2)c1	-1	99	i	1	25	113	-0.8
CCCCSCc1nc2ccccn2c1Br	-4	96	i	1	24	113	·
O=C(O)/C=C/C(=O)Nc1ccccc1C(=O)OCC(=O)c1ccc2c(c1)OCCO2	-7	108	i	0.96	56	53	·
CC(C)NC(=O)NC(=O)COC(=O)c1cccc(OC(F)F)c1	-6	102	i	0.9	·	·	·
O=C(Cn1nnc(-c2ccc(Cl)cc2)n1)NCCC1=CCCCC1	-17	101	i	1	·	·	0.4
Cc1nn(Cc2ccccc2)c(C)c1NC(=O)CCCn1nc(C)c([N+](=O)[O-])c1C	-3	98	i	0.94	·	·	-0.5
OCCC1CN(Cc2nc(-c3ccccc3)cs2)CCN1C1CCCC1 (stereo not given)	-5	95	i	0.97	·	·	·
COCCN(C(=O)CCc1ccccc1OC)c1nnc(-c2cccnc2)s1	-4	106	i	0.92	·	·	·
Cn1c(=O)c2c(nc(CN3CCOCC3)n2CC(O)CO)n(C)c1=O (stereo not given)	3	99	i	0.83	58	104	-1.5
Cc1oncc1-c1cn2ccccc2n1	-5	101	i	0.89	·	·	-0.9
CC1(C)Cc2nc3oc4c(N5CCOCC5)ncnc4c3cc2CO1	4	106	i	0.96	-3	100	-1.4
NC(=S)N=Nc1c(O)[nH]c2c(Br)cc(Br)cc12	1	94	i	0.88	·	·	·
Continued:
SMILES	PKD1 kinase inh	RGS16-Gao HTS	HSV replic up	HSV replic up primary fold	Insulin prom inh	Insulin prom inh cell count	GALR2 ag
O=C(O)C1=C[C@@H](c2csc3ccccc23)C[C@@H](OCCCCO)O1	3	103	i	0.92	·	·	·
Cc1ccc(S(=O)(=O)NC(C)CCc2ccccc2)cc1 (stereo not given)	-4	104	i	0.99	-17	110	-2.4
Cc1nnc(SCCn2c(N3CCN(C)CC3)nc3c2c(=O)[nH]c(=O)n3C)s1	-4	102	i	0.88	·	·	-1.4
N#C/C(=C\c1ccc(OCc2ccc(F)cc2)cc1)C(=O)Nc1cccc(C(=O)O)c1	·	98	i	0.87	·	·	·
CCOc1ccc(NC(=O)N(CCCN2CCOCC2)Cc2cccnc2)cc1	-5	114	i	1	·	·	-0.4
CCCn1c(SCC(=O)Nc2ccc(C(=O)Nc3ccccc3OC)cc2)n[nH]c1=O	-3	103	i	0.96	-7	143	·
O=C(Cn1cccc1)NCc1cccs1	-5	101	i	0.95	·	·	0.5
Cc1ccc(S(=O)(=O)N(C)C)cc1NC(=O)C1CCC1	·	99	i	1	·	·	·
Cc1ccc(NCC(O)C(O)C(O)CO)cc1C (stereo not given)	8	100	i	0.92	-427	93	-1.7
CCc1cccc(C)c1NC(=S)N(CCN(C)C)C(C)c1cccnc1 (stereo not given)	-1	98	i	0.84	-31	118	·
Cc1cc(C)cc(NC(=O)COC(=O)CCCC2=NS(=O)(=O)c3ccccc3N2)c1	8	109	·	·	-21	122	·
COc1ccc(Oc2nccc(-c3ccccc3)c2C#N)cc1	-9	87	i	1	-4	96	0.0
c1ccc(-c2cc3c(N4CCOCC4)ncnc3s2)cc1	-12	103	i	0.82	-19	48	0.4
O=C(NC12CC3CC(CC(C3)C1)C2)C1CC(=O)N(c2ccc(Br)cc2)C1 (stereo not given)	-3	106	i	0.95	-46	76	-1.6
O=C(Cc1ccc(F)cc1)NCC1CCCO1 (stereo not given)	-2	42	i	1	-7	98	·
Cn1nnnc1Sc1ncnc2scc(-c3ccc(F)cc3)c12	16	102	·	·	·	·	0.3
O=C(CN1C(=O)NC(Cc2ccccc2)C1=O)Nc1ccc(F)cc1 (stereo not given)	-4	102	i	0.74	17	97	-1.6
CCN(CC)CCN(Cc1cc2cc3c(cc2[nH]c1=O)OCCO3)C(=O)NC1CCCCC1	1	86	i	0.98	·	·	-1.7
CC(C)(O)C#Cc1ccc(C(=O)NCCc2ccc(S(N)(=O)=O)cc2)cc1	-4	119	i	0.87	33	32	·
COc1cc2[nH]c(=S)n(CCN3CCOCC3)c(=O)c2cc1OC	-8	95	i	0.95	0	170	-3.7
Cc1ccc(CNC(=O)CN(C)S(=O)(=O)c2cnc[nH]2)cc1	-10	101	i	1	7	89	-2.9
CN1CCN(c2ccccc2NC(=O)c2c(F)cccc2F)CC1	1	108	i	0.88	39	195	·
O=C(Nc1ccc(Oc2ccccc2)cc1)C1CCN(c2ncccn2)CC1	-9	109	i	0.94	-6	94	-1.4
Nc1nc2ccccc2n1/N=C/c1ccc(-c2ccccc2)o1	-9	114	·	·	43	142	-0.3
CCCC(C)C(=O)NCc1ccccc1OC (stereo not given)	-17	85	i	0.72	-3	91	-0.7
CCOC(=O)CSc1nc(C)cc(Oc2ccc(=O)n(C)n2)n1	-5	99	·	·	0	114	-0.2
CC(=O)NCCc1cc2ccc(C)c(C)c2[nH]c1=O	-14	101	i	0.86	·	·	0.2
Cc1ccc(S(=O)(=O)N2CCOCC2)cc1NC(=O)CSc1nc2ccccc2c(=O)n1Cc1ccccc1	-11	100	·	·	23	104	-1.4
O=C1N=C(N2CCCC2)S/C1=C\c1cn[nH]c1-c1ccccc1	-3	97	i	1.1	-19	114	0.5
CCSC1=N/C(=C\c2ccc3c(c2)OCO3)C(=O)S1	-4	95	i	1	50	145	-2.2

Brought forward from above: two entries; new compounds follow.
SMILES	PKD1 kinase inh	RGS16-Gao HTS	HSV replic up	HSV replic up primary fold	Insulin prom inh	Insulin prom inh cell count	GALR2 ag
O=C1N=C(N2CCCC2)S/C1=C\c1cn[nH]c1-c1ccccc1	-3	97	i	1.1	-19	114	0.5
CCSC1=N/C(=C\c2ccc3c(c2)OCO3)C(=O)S1	-4	95	i	1	50	145	-2.2
CCc1nnc(NS(=O)(=O)c2ccc(Nc3ccc([N+](=O)[O-])c4nonc34)cc2)s1	-6	103	i	1.2	·	·	·
CCc1c(C)nc2ncnn2c1N1CCC(C(=O)NCc2cccc(OC)c2)CC1	-2	69	i	0.83	-65	121	-2.2
O=S(=O)(CCc1nc2ccccc2o1)c1ccc(Cl)cc1	-3	102	i	1.1	-226	117	-1.1
NC(=O)CC(NC(=O)Cc1ccc(Br)cc1)c1ccc(NCCc2ccccc2F)c([N+](=O)[O-])c1 (stereo not given)	·	101	i	0.81	·	·	·
O=C(Nc1cnc2sccn2c1=O)c1ccccc1Cl	-10	93	i	1.1	57	113	-1.2
Cc1cc(N2CCCC2)c(C)cc1C=O	3	99	i	1	-14	142	-2.0
COC(=O)c1cn(NC(=O)c2ccc(OC)c([N+](=O)[O-])c2)c(=O)c2ccccc12	3	103	i	0.99	·	·	·
CC(C)(C)NC(=O)NC(=O)COC(=O)COc1ccc(Cl)cc1Cl	-12	107	i	0.91	55	119	·
O=C(c1ccccc1)N1CCCCC(Sc2nnc3ccccn23)C1=O (stereo not given)	-13	96	i	0.87	-22	124	-0.1
COc1ccccc1-c1coc2c(CN3CCN(C)CC3)c(O)ccc2c1=O	5	118	i	1.1	-23	123	-4.0
CCOC(=O)C(=O)N(CC)C1CCS(=O)(=O)C1 (stereo not given)	·	105	i	1	·	·	·
O=C(CSc1ncc(-c2ccccc2)n1C1CCCC1)N1CCc2ccccc21	-7	104	i	1.1	-10	130	-2.2

One compound at a time, as listed above. Order of values: PKD1 kinase inh, RGS16-Gao HTS, HSV replic up, HSV replic up primary fold, Insulin prom inh, Insulin prom inh cell count, GALR2 ag
NC(=O)CC(NC(=O)Cc1ccc(Br)cc1)c1ccc(NCCc2ccccc2F)c([N+](=O)[O-])c1 (stereo not given) is listed with ·, 101, i, 0.81, ·, ·, ·
CCOC(=O)C(=O)N(CC)C1CCS(=O)(=O)C1 (stereo not given) is listed with ·, 105, i, 1, ·, ·, ·
O=C(c1ccccc1)N1CCCCC(Sc2nnc3ccccn23)C1=O (stereo not given) is listed with -13, 96, i, 0.87, -22, 124, -0.1
COC(=O)c1cn(NC(=O)c2ccc(OC)c([N+](=O)[O-])c2)c(=O)c2ccccc12 is listed with 3, 103, i, 0.99, ·, ·, ·
CC(C)(C)NC(=O)NC(=O)COC(=O)COc1ccc(Cl)cc1Cl is listed with -12, 107, i, 0.91, 55, 119, ·
